# MenB inh: Mtb MenB enzyme inhibition. 100,000 tested, 0.43% active. AID 540299. P9WNP5. MenB enzyme assay, absorbance read-out; some hits fall short of the stated cut. inhibition, %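 (about 12 µg/mL by stock and volumes)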;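 active = mean of two replicates above 30%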;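 note: 0% = no compound and 100% = wells with inactive enzyme; the first replicate is given; strong numbers were not always called active; inactives centre near -10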
# Mtb MbtI inh: blocks the Mycobacterium tuberculosis siderophore enzyme MbtI; P9WFX0; purified MbtI enzyme, fluorescence intensity read-out; 100,000 tested, 0.89% active; inhibition, %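 (about 17 µg/mL by stock and volumes)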;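 active = above 50% in both replicates, above 80% if mildly self-fluorescent; inactive = the rest, strongly fluorescent compounds included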;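 note: 0% = mean of negative and 100% = mean of positive controls; one replicate is shown; some compounds called inactive have numbers as strong as hits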
# Target sequence (P9WFX0 whole entry, looked up): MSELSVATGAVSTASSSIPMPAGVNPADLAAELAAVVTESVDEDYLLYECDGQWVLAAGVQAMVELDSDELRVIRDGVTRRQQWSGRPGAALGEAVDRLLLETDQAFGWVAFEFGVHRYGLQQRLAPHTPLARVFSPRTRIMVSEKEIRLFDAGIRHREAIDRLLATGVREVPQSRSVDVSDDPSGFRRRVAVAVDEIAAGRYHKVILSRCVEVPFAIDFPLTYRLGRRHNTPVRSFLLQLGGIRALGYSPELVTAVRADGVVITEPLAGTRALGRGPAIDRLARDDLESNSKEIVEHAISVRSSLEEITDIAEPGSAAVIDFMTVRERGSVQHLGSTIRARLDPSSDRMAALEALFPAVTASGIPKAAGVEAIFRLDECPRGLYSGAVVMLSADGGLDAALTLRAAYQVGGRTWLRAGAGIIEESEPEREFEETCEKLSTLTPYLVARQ
# PV pol inh: poliovirus RNA polymerase inhibition; P03300; poliovirus polymerase elongation, fluorescence polarization; active compounds read low; % elongation, % (compound at 16.7 µg/mL); AID 588519; 150,000 tested, 0.66% active; in the data active = % elongation below about 90%; note: some results filed as inactive read as strong as hits
# Target sequence (P03300 1749-2209 limits assumed): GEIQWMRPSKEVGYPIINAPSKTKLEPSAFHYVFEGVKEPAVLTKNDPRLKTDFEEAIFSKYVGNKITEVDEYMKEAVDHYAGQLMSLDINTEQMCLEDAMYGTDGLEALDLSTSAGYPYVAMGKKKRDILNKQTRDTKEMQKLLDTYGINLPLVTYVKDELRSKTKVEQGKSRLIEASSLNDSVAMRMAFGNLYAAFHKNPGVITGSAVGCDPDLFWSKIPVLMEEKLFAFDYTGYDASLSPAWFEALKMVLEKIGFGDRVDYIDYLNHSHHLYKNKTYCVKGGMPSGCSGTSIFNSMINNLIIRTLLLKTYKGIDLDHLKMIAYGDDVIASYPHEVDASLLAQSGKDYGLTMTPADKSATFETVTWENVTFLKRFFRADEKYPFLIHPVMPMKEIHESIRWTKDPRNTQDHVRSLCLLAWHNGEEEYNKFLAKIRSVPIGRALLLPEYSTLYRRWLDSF
# PV pol inh intensity: also measured in PV pol inh; calls as there; % elongation; measured here: total intensity read-out; formula for this scale not given here;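 total fluorescence in place of polarization; lower means less elongation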
# * hit, by the source's call; nt = no result given.
mol,MenB inh,Mtb MbtI inh,PV pol inh,PV pol inh intensity
Cc1ccc(CNCc2cccn2-c2sc(C)c(C)c2C(=O)O)cc1,-16.2,-2.6,108.0,100.0
CCc1cccc(NS(=O)(=O)c2ccc3[nH]c4c(c3c2)CCCC4)c1,-7.7,4.4,102.0,106.0
CCN1CCN(c2sc(S(C)(=O)=O)nc2S(=O)(=O)c2ccc(Cl)cc2)CC1,-18.3,-3.0,104.0,97.0
CC(C)NC(=O)c1ccccc1NC(=O)CN1C(=O)c2cccc3cccc1c23,-16.7,nt,99.0,102.0
Cc1[nH]c(=O)c(C#N)c(C)c1CCC(=O)NC1CCCCCC1,-27.0,20.0,102.0,113.0
COc1ccc(N=C2SC(CC(=O)Nc3ccc(F)cc3F)C(=O)N2CCCN2CCOCC2)cc1 (configuration not stated),-4.0,0.6,100.0,94.0
CCN(C(=O)Cn1c(=O)n(Cc2ccc3c(c2)OCO3)c(=O)c2ccccc21)c1cccc(C)c1,-24.0,11.9,101.0,101.0
Cc1onc(-c2ccccc2)c1C(=O)NC1CCCCC1NC(=O)c1c(-c2ccccc2)noc1C (configuration not stated),-15.3,-11.4,102.0,100.0
Cc1ccccc1C(=O)N1CCC(C(=O)Nc2ccccc2)CC1,-19.7,-2.5,100.0,95.0
COC(=O)c1cc(OC)c(OC)cc1NC(=S)N1CCN(C)CC1,-28.7,-5.0,101.0,102.0
CC1CC(C)CN(Cc2nc(N)nc(Nc3ccc4ccccc4c3)n2)C1 (configuration not stated),-16.1,-2.0,103.0,102.0
O=C(CSc1cccc[n+]1[O-])Nc1cccc(Oc2ccccc2)c1,nt,2.4,103.0,105.0
CN(C)c1ccc(/C=C2/SC(N3CCN(CCC#N)CC3)=NC2=O)cc1,-125.1,18.6,107.0,205.0
O=C(OC1CCOC1=O)c1ccccc1 (configuration not stated),-2.5,-1.0,103.0,106.0
CCOC(=O)c1c(C)[nH]c(C(=O)C(C)OC(=O)[C@H](C)N=C2NS(=O)(=O)c3ccccc32)c1C (some centres not stated),-1.4,-0.4,102.0,108.0
CSc1c(C#N)c(=O)[nH]c2sc(C#N)c(N)c12,-28.9,85.8,103.0,110.0
NC(=O)c1cccc(N=Cc2cccc(Cl)c2Cl)c1,3.0,2.5,98.0,100.0
O=c1c2c(nc3nn[nH]n13)CCN(Cc1ccccc1)C2,8.8,nt,104.0,98.0
CC1=CC(=O)C(CCCCCC2=CC(=O)C(C)=CC2=O)=CC1=O,6.5,94.7*,103.0,98.0
CCOC(=O)C1=C(C)NC(=S)NC1c1ccc(OCC(=O)N2CCCCC2)c(OC)c1 (configuration not stated),11.1,11.9,102.0,104.0

# Next part; it opens with the three that closed the last part.
mol,MenB inh,Mtb MbtI inh,PV pol inh,PV pol inh intensity
O=c1c2c(nc3nn[nH]n13)CCN(Cc1ccccc1)C2,8.8,nt,104.0,98.0
CC1=CC(=O)C(CCCCCC2=CC(=O)C(C)=CC2=O)=CC1=O,6.5,94.7*,103.0,98.0
CCOC(=O)C1=C(C)NC(=S)NC1c1ccc(OCC(=O)N2CCCCC2)c(OC)c1 (configuration not stated),11.1,11.9,102.0,104.0
CCN(CC)c1nc(Cl)nc(N(C)C#N)n1,-19.5,-6.1,101.0,108.0
COc1cccc(CN2CCN(Cc3ccc(F)cc3)C2c2ccc(SC)cc2)c1 (configuration not stated),-4.7,-0.3,103.0,98.0
FC(F)(F)c1cnc(N2CCN(Cc3cc(Cl)c4c(c3)OCCCO4)CC2)c(Cl)c1,-16.5,0.5,98.0,100.0
N#Cc1ccc(CSc2ncc3ccccn23)cc1,4.7,0.9,101.0,104.0
O=c1[nH]c2nonc2nc1Nc1ccccc1F,5.2,nt,104.0,103.0
Cc1nc2c(c(C)nn2C(C)(C)C)c(C)c1CCC(=O)N(C)Cc1ccccc1,9.1,-0.1,100.0,104.0
O=S(=O)(c1cccs1)n1ccnc1,11.0,1.9,101.0,107.0
O=C(NC1CCCC1)c1ccc2c(=O)n3nc(Nc4ccccc4)sc3nc2c1,-19.0,28.1,100.0,95.0
S=C(Nc1ccc(Cl)cc1)Nc1ccc(-c2csnn2)cc1,-16.5,-4.9,102.0,109.0
COc1cc(NS(=O)(=O)c2cccc(Cl)c2Cl)cc(OC)c1,-16.5,-17.4,108.0,114.0
COc1ccc(CCNC(=O)CSc2cn(Cc3ccc(F)cc3)c3ccccc23)cc1OC,-49.9,10.3,103.0,104.0
Cc1cccc(NC(=O)C(C)(C)C)c1,-2.5,14.6,104.0,97.0
CC(=O)NCCc1nc2ccc(NC(=O)Cn3nc(C)c4ccccc4c3=O)cc2n1C,6.3,-5.9,101.0,102.0
CSc1nnc(CNC(=O)N(c2ccccc2)c2ccccc2)n1C,12.7,-1.8,101.0,102.0
CN(CC1COc2ccccc2O1)c1cc(=O)n2cc(Cl)ccc2n1 (configuration not stated),-22.2,5.2,106.0,113.0
N#CC(C(=O)CN1CCCCC1)c1ccccc1 (configuration not stated),-13.4,-0.5,106.0,101.0
O=C(O)CNC(=S)N(Cc1cccs1)C1CCCCC1,-10.6,-2.0,104.0,104.0
Oc1cnn(-c2ccccc2)c1,-31.9,-10.3,100.0,100.0
O=C1C(=Cc2ccc(C(F)(F)F)cc2)C(=O)c2ccccc21,-20.0,7.4,102.0,105.0
CC(=O)OCC(=O)[C@@]1(O)CCC2C3CCC4=CC(=O)C=CC4(C)C3[C@@H](O)C[C@@]21C (some centres not stated),-8.6,-30.9,101.0,102.0

# Record cards (already shown).
# N#CC(C(=O)CN1CCCCC1)c1ccccc1 (configuration not stated) is entered as MenB inh = -13.4; Mtb MbtI inh = -0.5; PV pol inh = 106.0; PV pol inh intensity = 101.0
# O=C1C(=Cc2ccc(C(F)(F)F)cc2)C(=O)c2ccccc21 is entered as MenB inh = -20.0; Mtb MbtI inh = 7.4; PV pol inh = 102.0; PV pol inh intensity = 105.0

# New compounds follow:
mol,MenB inh,Mtb MbtI inh,PV pol inh,PV pol inh intensity
CCCNC(=O)Cn1nc(C)c2sc3ccccc3c2c1=O,-10.4,40.9,101.0,101.0
CCC(=O)Nc1cccc(C(=O)N2CCc3ccccc32)c1,-39.6,-4.6,105.0,102.0
Nc1nc2ccc(Cl)cc2c(-c2ccccc2)c1CN1CCOCC1,-20.1,nt,105.0,106.0
CCOC(=O)C1CCN(C(=O)CSc2nc3ccccc3o2)CC1,-11.8,7.6,102.0,108.0
COc1ccc(C(=O)Nc2cc(C(F)(F)F)ccc2-n2cncn2)cc1,nt,-3.8,103.0,106.0
O=C1CCCN1CC(O)CS(=O)(=O)c1ccc(Cl)cc1 (configuration not stated),-15.0,10.6,102.0,104.0
CCN1C(=O)C[C@@H](C(=O)NC)[C@@H]1c1ccc(OC)cc1OC,-34.8,nt,102.0,103.0
Nc1nc2ccc(-c3nc4ccccc4o3)cc2s1,-13.3,110.1,101.0,107.0
CCc1cccc(NC(=O)C2CCN(c3nn4c(=O)cc(C)nc4s3)CC2)c1,3.9,14.9,103.0,97.0
O=C(CCC1CCCC1)NCc1ccc2[nH]c3c(c2c1)CCCC3,-5.4,-9.3,103.0,107.0
CC(C)c1cc(N)on1,-11.9,-16.4,99.0,102.0
O=C(O)c1ccc2c(c1)C(=O)N(c1cccc(Cl)c1)C2=O,-23.5,-5.8,104.0,101.0
COc1ccc(-c2oc(/N=C/c3ccccc3)c(C#N)c2-c2ccc(OC)cc2)cc1,-38.5,-4.5,100.0,104.0
Oc1ccc(NC(=S)NCCc2ccccc2)cc1,-18.0,-6.8,100.0,104.0
CCOc1ccc(C(=O)N(C)Cc2ccc(OC)cc2OC)cc1,-24.2,11.6,103.0,111.0
CCc1c(C)c(C#N)c2nc3ccccc3n2c1-n1ccnc1,-9.8,1.0,103.0,106.0
CC(=O)OC1C(OC(C)=O)N(C(C)=O)C(=O)N1C(C)=O (configuration not stated),-18.8,-2.1,105.0,109.0
OC(COc1ccc2ccccc2c1)Cn1ccnc1 (configuration not stated),-29.7,2.6,101.0,101.0
CC(Sc1nc2sc3c(c2c(=O)n1C)CCC3)C(=O)Nc1ccc(Cl)cn1 (configuration not stated),11.7,-2.0,nt,nt
Cc1cc(C(=O)C(C)Sc2n[nH]c(N)n2)c(C)n1-c1ccccc1 (configuration not stated),-8.8,25.2,103.0,93.0

# Additional results:
mol,MenB inh,Mtb MbtI inh,PV pol inh,PV pol inh intensity
COc1ccccc1OC(C)C(=O)NN (configuration not stated),6.6,2.2,105.0,101.0
O=c1[nH]c(CN2CCSc3ccccc32)nc2ccccc12,-35.5,-4.8,111.0,119.0
O=c1[nH]c(CNCCO)nc2ccsc12,-50.3,-8.2,132.0,145.0
CN1CCC(=NNC(=O)c2cccc(S(=O)(=O)Nc3cc(Cl)ccc3Cl)c2)CC1,-6.8,1.1,95.0,101.0
Cc1ccc(C)n1-c1nnc(N2CCC(C(=O)NC3CCCCC3)CC2)s1,-12.1,-6.8,102.0,104.0
O=C(SCc1ccco1)c1c(Cl)nc2ccccn12,nt,8.9,103.0,97.0
CCN(CC)c1nc(N2CCOCC2)nc(N2CCOCC2)n1,-48.4,-16.4,102.0,101.0
Oc1ccc(-c2nc3ccccc3s2)cc1,4.5,102.9,nt,nt
O=C(CSc1nnc(COc2ccccc2)o1)N1CCc2ccccc21,-7.7,-1.5,103.0,101.0
COc1ccc(Cc2nnc(SCC(=O)C(C)(C)C)n2-c2ccc(F)cc2)cc1OC,3.7,-7.8,106.0,110.0
Cc1noc(C)c1COC(=O)/C=C/c1ccc2c(c1)OCO2,-33.3,-15.6,101.0,91.0
O=c1[nH]c2ccc(N=Cc3ccccc3C(F)(F)F)cc2[nH]1,12.1,-1.2,103.0,101.0
Cc1occc1-c1nnc(SCC(=O)c2c[nH]c3ccccc23)n1-c1ccccc1,6.5,10.9,110.0,102.0
Cc1ccc(S(=O)(=O)NC(=O)N2CCC(Nc3nccc(C(F)(F)F)n3)CC2)cc1,-24.3,-9.1,106.0,102.0
COc1ccc(C2C=C(c3ccccc3)Nc3ncnn32)cc1 (configuration not stated),nt,28.8,101.0,107.0
CC12C(=O)C3C4CC5C3C(=O)C1C5C42 (configuration not stated),-18.2,5.6,101.0,96.0
CCOC(=O)C1=C(CN2CCOCC2)NC(=O)NC1c1cccs1 (configuration not stated),7.4,-3.2,102.0,101.0
Oc1ccc(Oc2ncc(Cl)cc2Cl)cc1,-33.9,-21.7,102.0,104.0
CC(Nc1ccc2c(c1)OCO2)C(=O)Nc1ccccc1 (configuration not stated),-4.6,-5.0,106.0,121.0
Cn1c(=O)c2c(nc(NCc3ccco3)n2C)n(C)c1=O,1.8,-1.7,102.0,104.0

# The listing continues.
mol,MenB inh,Mtb MbtI inh,PV pol inh,PV pol inh intensity
c1ccc(CN2c3ccccc3-c3nc4ccccc4n3C2c2ccco2)cc1 (configuration not stated),-30.7,117.8,105.0,103.0
Cc1cccc2sc(NC(=O)c3ccncc3)nc12,-19.5,-6.6,105.0,101.0
COC1CCCCC1Nc1cc(C)ccc1C (configuration not stated),-4.6,nt,94.0,97.0
COc1ccc(CNS(=O)(=O)c2cccc3nsnc23)cc1,-33.9,6.8,103.0,101.0
CCCCC(CC)Cn1c(=S)[nH]c2c(sc3ccccc32)c1=O (configuration not stated),-31.6,1.2,104.0,107.0
CCCCc1nnc(NC(=O)CC)s1,-8.6,nt,110.0,104.0
CC1CCC(C(C)C)C(OC(=O)COC(=O)c2ccc(O)cc2)C1 (configuration not stated),-22.8,-12.8,101.0,107.0
O=C(NC(c1ccccc1)c1ccccc1)C1CCCO1 (configuration not stated),20.3,-0.9,103.0,101.0
CCc1nc2ccccc2c(=O)n1-c1ccc(OC)cc1,-8.2,nt,101.0,108.0
COc1ccc(/C=C/C(=O)Nc2cc(C)[nH]n2)cc1OC,nt,8.3,102.0,97.0
COc1ccc(CCNC(=O)c2snnc2C)cc1,-3.0,0.8,101.0,102.0
COc1ccc(C(=O)OC(C)CN(C)C)cc1 (configuration not stated),-18.8,3.5,103.0,100.0
O=C(c1ccc(C(=O)N2CCCCCC2)s1)N1CCCCCC1,nt,-13.3,104.0,109.0
Cc1cc(CSc2cc(C)c(Cl)cc2C)no1,-9.1,-5.3,104.0,109.0
Cc1cc(/C=C2/SC(=O)N(C)C2=O)c(C)n1-c1ccccc1,-21.7,nt,109.0,115.0
Cc1cc(C(=O)COc2ccc(Br)cc2F)c(C)n1C1CC1,-21.3,-2.1,102.0,107.0
COC(=O)C1=C(O)/C(=C\c2ccc(Br)cc2)N=C1C,-10.0,0.9,101.0,106.0
CCc1c(C)nc2cc(-c3cc(OC)cc(OC)c3)nn2c1NCCO,-10.9,2.9,101.0,106.0
Nc1ncnc2c1nc(SCCO)n2Cc1ccccc1,1.1,-3.0,104.0,102.0
O=C(c1ccc(NC2=NC3CS(=O)(=O)CC3S2)cc1)N1CCCCC1 (configuration not stated),-16.7,1.3,103.0,104.0
Cc1ccc(S(=O)(=O)C2(C(=O)N(C)C3CCCCC3)CC2)cc1,-13.4,-2.8,99.0,102.0
CC(=O)NC1C(O/N=C2/C(=O)N(CCOc3ccccc3C)c3ccc(C)cc32)OC(CO)C(O)C1O (configuration not stated),-3.2,-6.5,nt,nt

# Source: PubChem BioAssay (ICCB-Longwood Screening Facility, Harvard Medical School)
